# Compound activity as filed in PubChem BioAssay.
# NPYLR7 agonist – agonists of mosquito NPYLR7 receptor, primary screen, cell-based, Aedes aegypti, calcium fluorescence, mosquito biting behavior; Aedes aegypti neuropeptide Y-like receptor 7 (NPYLR7); HEK293T NPYLR7/Galpha15, GCaMP6s calcium fluorescence; activation, % at 10 µM; hit rate 0.15% among 270,000; in the data active means activation above about 40%;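 further: 0% = vehicle and 100% = reference agonist at the receptor; some compounds past the cut are filed as inactive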
# NPYLR7 agonist max-min – second read-out of NPYLR7 agonist, no call of its own (marks repeat the call); activation, %; measured here: Max-Min RFU normalised activation; some inactives read as strong as hits;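 span of the calcium signal over five minutes; 0% = vehicle and 100% = native peptide agonist; compound fluorescence can raise it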
# * hit, by the source's call; & = joins results of further samples.
SMILES,NPYLR7 agonist max-min,NPYLR7 agonist
CCn1c(=O)c(C(=O)NCC2CCCO2)nn(-c2ccc(S(C)(=O)=O)cc2)c1=O (centres undefined),4,3
C/C(=N\NC(=O)c1n[nH]c2c1CCC2)c1ccc(-c2ccccc2)cc1,8,4
CC1=C(C(=O)Nc2ccccc2C)C(c2ccccc2)NC(=O)N1C (centres undefined),8,8
CC(=O)N1CCCn2nc(C(=O)NCc3ccc4sccc4c3)cc2C1,0,8
CC(C)S(=O)(=O)n1c(N)nc2ccc(Br)cc21,23,-7
CC1Oc2ccc(C#N)cc2N(Cc2ccc(S(C)(=O)=O)cc2)C1=O (centres undefined),6,8
CC(Oc1ccc(F)cc1Br)C(=O)N(C)Cc1ccncc1 (centres undefined),3,4
CCOC(=O)c1cc([N+](=O)[O-])sc1NC(=O)CC,6,4
O=C(c1ccc(CSc2nnc(Cc3ccccc3)n2-c2cccc(C(F)(F)F)c2)cc1)N1CCCC1,-6,-10
CN(C)C(=O)c1ccc(NCc2c(F)cccc2Cl)cc1,-2,0
c1ccc(Cc2nn3c(Cn4cnc5ccccc54)nnc3s2)cc1,3,8
Cc1c(C(=O)NCc2cccc(C(F)(F)F)c2)sc(=O)n1Cc1ccncc1,-6,-5
CC(C(=O)Nc1cccc(-c2cn3ccsc3n2)c1)n1nc(-c2cccs2)ccc1=O (centres undefined),-2,1
COc1ccc(-c2nnc3ccc(SCC(=O)NC4CCCCC4)nn23)cc1OC,10,7
Cc1cccc(-n2ccnc2CN2CCN(C(C)C)C(CCO)C2)c1 (centres undefined),-6,-6
Cc1ccccc1-c1ccc(-n2cncc2C(=O)NCCF)cc1,10,1
O=C(c1ccco1)N1CCCC(Cn2cc(-c3ccccn3)nn2)C1 (centres undefined),3,22
Cc1ccccc1C1c2ccsc2CCN1CC(=O)N1CCN(C(=O)c2ccc3c(c2)OCO3)CC1 (centres undefined),2,10
COc1ccc(CCc2nnc(CCC(=O)N3C[C@@H](C)O[C@@H](C)C3)o2)cc1,-5,1
Cc1ccc(C)c(C2=NN(C(=O)CN(C)C3CCCCC3)C(c3cccc(F)c3)C2)c1 (centres undefined),6,-2
CCOC(=O)c1c(NC(=O)Cc2ccccc2)sc(C(=O)Nc2ccc(OC)cc2)c1C,-6,-3
Cc1noc(C2CCN(C(=O)c3cccnc3SC(F)(F)F)CC2)n1,5,9
COC(=O)CCN1CCN(C(=O)OC(C)(C)C)CC1,-16,-12
CCC(C)N(CC1=CCN(Cc2ncccn2)CC1)C(C)=O (centres undefined),18,20
COc1ccc(-n2c(SCC(=O)N3CCN(C(=O)c4ccc(OC)cc4OC)C(C)C3)nnc2-c2ccc(C)cc2)cc1 (centres undefined),5,4
CN(C)C1CCCN(C(=O)c2ccc(-n3cccc3)cc2)C1 (centres undefined),-6,-2
COc1ccc2nc(N(CCN(C)C)C(=O)/C=C/c3cccs3)sc2c1,-9,-3
COc1cc(C(=O)N2CCN3C(=O)CNC(=O)C3C2)ccn1 (centres undefined),7,10
Cc1cc(C)c(C#N)c(NCc2cccc(NC(=O)CN(C)C)c2)n1,598,-2
CC(C)CNC(=O)C1(C)CCN1C(=O)Cc1ccccc1Cl (centres undefined),1,-1
CCOC(=O)c1c(C)nn(-c2ccc(C(=O)NCCC(c3ccccc3)c3ccccc3)cc2)c1C,2,7
O=C(Cc1csc(Nc2ccc(OC(F)(F)F)cc2)n1)NC1CC1,2,9
CCCN(Cc1nnc(-c2ccco2)o1)C(=O)C=Cc1c(C)nn(C)c1C,1,-1
COc1ccc(/C=C2\C=C(c3ccccc3)N(c3cc(C)ccc3C)C2=O)cc1Br,5,-3
Cc1nc(N2CCOCC2)ncc1-c1cc(=O)[nH]c(N2CCCCC2)n1,-5,0
COc1ccc(C(=O)N2CCN(C(C(=O)NCC3CCCO3)C3CCCC3)CC2)cc1OC (centres undefined),-10,-11

# An excerpt from above in order of SMILES length, ascending:
SMILES,NPYLR7 agonist max-min,NPYLR7 agonist
Cc1nc(N2CCOCC2)ncc1-c1cc(=O)[nH]c(N2CCCCC2)n1,-5,0
COc1ccc(/C=C2\C=C(c3ccccc3)N(c3cc(C)ccc3C)C2=O)cc1Br,5,-3
COc1ccc(C(=O)N2CCN(C(C(=O)NCC3CCCO3)C3CCCC3)CC2)cc1OC (centres undefined),-10,-11

# Additional structures:
SMILES,NPYLR7 agonist max-min,NPYLR7 agonist
Cc1ccc(-c2nc(SCc3ncc(C(C)C)o3)n[nH]2)cc1,-4,-1
O=c1cc(O)c2ccc(O)cc2o1,0,3
CCn1c(C)cc(C(=O)CSc2nnc(-c3ccco3)o2)c1C,-2,-3
Oc1[nH]c2cc3c(cc2c1N=NCc1ccc(Cl)cc1Cl)OCCO3,3,4
O=C(NCc1cccnc1)c1ccc2oc(-c3cccc(F)c3)nc2c1,1,6
CC(C)(C)NC(=O)Cn1c(-c2ccc3c(c2)OCCO3)csc1=O,9,13
O=S(=O)(Nc1nc2ccccc2nc1Nc1ccccc1)c1cccc2nsnc12,-5,-2
O=C(NCCc1ccccc1)C1CCCN(C2CCN(c3ncccn3)CC2)C1 (centres undefined),-3,6
Cc1occc1C(=O)NCCCNc1cccnc1,9,18
O=C(CCN(c1nc(C2CC2)nc2ccccc12)C1CCCCC1)NCc1ccccc1,12,10
CC(C)N(CCNC(=O)c1cccnc1Oc1ccc(Cl)cc1)C(C)C,-9,-5
Cc1cc(O)c(C(=O)Nc2ccc(Cl)c(Cl)c2)c(=O)n1C,-3,-1
CS(=O)(=O)c1ccc(C2=C(C#N)CCS2)cc1,2,4
C=CCN(Cc1ccccc1C#N)Cc1cccn1Cc1cccc(C(F)(F)F)c1,-5,-5
CS(=O)(=O)Nc1nc2n(n1)C(c1ccc(Cl)cc1)CC(c1ccccc1)=N2 (centres undefined),0,2
CC1CN(C(=O)CNc2ccc3c(c2)C(=O)CCC3)CC(C)O1 (centres undefined),-5&-5,-2&-2
COc1ccc(OC)c(NC(=O)N2CC[C@@](C)(O)[C@@H](CC(C)C)C2)c1,3,3
O=C(c1cc(F)ccc1F)N1CCC(c2nc(-c3ccc(F)c(F)c3)no2)CC1,0,3
CN(C)C(=O)c1cccc(CNC(=O)c2csc(Br)c2)c1,5,8
CC(=O)c1cccc(S(=O)(=O)N2CCN(C(=O)c3ccc(N4CCCS4(=O)=O)cc3)CC2)c1,12,2
O=C(c1ccc(CSc2c(F)c(F)cc(F)c2F)cc1)N1C2CCC1CC(Oc1ccc(F)cc1F)C2 (centres undefined),-2,9
CC(C)N(CC(=O)N(Cc1ccccc1)Cc1cccn1Cc1ccccc1)C(=O)c1cccs1,7,9
CC1=C/C(=N/N=C2\NC(=O)C(CC(=O)Nc3ccccc3C(F)(F)F)S2)CC(C)(C)C1 (centres undefined),1,1
O=[N+]([O-])c1cc(C=NN2CCN(Cc3cccc4ccccc34)CC2)ccc1Cl,-13,-6
COc1ccc(C(CC(=O)N(C)Cc2nc(C)cs2)c2ccccc2)cc1 (centres undefined),0,3
COc1cc(COC2CCCN(S(=O)(=O)c3ccc(Cl)cc3)C2)cc(OC)c1 (centres undefined),18,14
Cc1cc(C(=O)NCCC(=O)Nc2cccc3ccccc23)n[nH]1,11,12
O=C(NCC1CCCO1)C(C1CCCC1)N1CCN(C(=O)c2ccc(F)cc2)CC1 (centres undefined),-8,-10
COc1ccc(S(=O)(=O)n2nc(OC(=O)c3ccc(Cl)cc3)cc2N)cc1,-4,1
c1cc[n+](Cc2cn3ccccc3n2)cc1,11,20
Cc1ccc(CN(C(=O)Nc2nnc(C(C)C)s2)C2CC2)o1,-9,-8
Cc1ccc(S(=O)(=O)n2ccn(C(=O)CC3CCCCC3)c2=O)cc1,6,11
CCOc1ncccc1C(=O)N1CCN(S(=O)(=O)c2ccc(F)c(F)c2)CC1,12,10
CC1C(=O)N(c2ccc3c(c2)OCO3)CCN1C(=O)Nc1cccc(Cl)c1 (centres undefined),21,8
CCN1CCN(C(=O)c2ccc(CSc3nnc(C)n3-c3cccc(Cl)c3)cc2)CC1,14,4
O=C(C1CN(c2ncnc3[nH]ccc23)CCN1)N1CCCC1 (centres undefined),3,6

# Overlap with the part before: 6 entries; new compounds follow.
SMILES,NPYLR7 agonist max-min,NPYLR7 agonist
Cc1ccc(CN(C(=O)Nc2nnc(C(C)C)s2)C2CC2)o1,-9,-8
Cc1ccc(S(=O)(=O)n2ccn(C(=O)CC3CCCCC3)c2=O)cc1,6,11
CCOc1ncccc1C(=O)N1CCN(S(=O)(=O)c2ccc(F)c(F)c2)CC1,12,10
CC1C(=O)N(c2ccc3c(c2)OCO3)CCN1C(=O)Nc1cccc(Cl)c1 (centres undefined),21,8
CCN1CCN(C(=O)c2ccc(CSc3nnc(C)n3-c3cccc(Cl)c3)cc2)CC1,14,4
O=C(C1CN(c2ncnc3[nH]ccc23)CCN1)N1CCCC1 (centres undefined),3,6
CC(C)c1noc(C2CCN(C(=O)C3CC4(CCNCC4)CN3)CC2)n1 (centres undefined),7,21
Cc1cc(C)n2nc(NC(=O)N[C@@H](C)C(=O)N3CCCCC3)nc2n1,-2,1
COc1cccc(C(=O)NCC2CCN(c3nc(Cc4ccc(C)cc4)ns3)CC2)c1,13,15
CCOc1ccc(S(=O)(=O)NCc2ccco2)cc1C,-3,3
CCOc1ccc(-c2ccc(OCCNS(=O)(=O)c3ccc4ccccc4c3)nn2)cc1,-4,-5
NC(=O)c1ccnc(N2CCN(C/C=C/c3ccccc3)CC2)c1,-3,13
COc1ccc(C=C(C#N)C#N)cc1OCc1ccccc1,1,0
O=C(NCCCn1ccc2ccccc21)c1cn(CC2COc3ccccc3O2)nn1 (centres undefined),4,19
Cc1ccc(NC(=O)CSc2ccc(NC(=O)C(C)C)nn2)cc1F,-2,-2
COc1ccc(NC(=O)CC23CC4CC(CC(C4)C2)C3)cc1S(=O)(=O)N(C)C,11,6
Cc1ccc(-c2nc(C(=O)Nc3cccn(C)c3=O)cs2)o1,-3,-1
COCCN(CC(=O)N(Cc1ccc(F)cc1)Cc1cccs1)C(=O)c1ccc(-c2ccccc2)cc1,-8,-12
COc1cc(C(=O)N2CCCC(N(C)CCc3ccccc3)C2)c2ccccc2n1 (centres undefined),1,14
CC(=O)Nc1cc(C2=CCCN(CC(C)N3CCOCC3)C2)nn1C (centres undefined),-7,-1
CCOC(=O)N1CCc2c(sc(NC(=O)c3nc4ccccc4s3)c2C(N)=O)C1,-2,0
O=C(NCCO)c1cc2n(n1)CCCN(C(=O)Cc1ccc(F)c(F)c1)C2,-7,4
Cc1nn(C(C)C(=O)NC(C)C2CC3CCC2C3)c(C)c1[N+](=O)[O-] (centres undefined),2,2
CC(=O)OCN1C(=O)N(C)C2C1N(C)C(=O)N2COC(C)=O (centres undefined),-1,1
CCOC(=O)Cn1c(=O)c2c(nc3n(-c4ccc(Cl)cc4)c(C)c(C)n23)n(C)c1=O,1,1
Cc1cc(C)n(C2CCN(c3nccc(CCC(F)(F)F)n3)C2)n1 (centres undefined),-10,-6
CCOC(=O)N1CCC(N2CCC(n3nccc3NC(=O)c3ccccc3)CC2)CC1,5,13
O=C1Nc2ccc(S(=O)(=O)N3CCOCC3)c3cccc1c23,12,10
O=C(Cn1ccn2nc(-c3ccccc3)cc2c1=O)Nc1ccc2c(c1)OCO2,1,3
CCCOc1ccc2ccccc2c1CN(C)S(=O)(=O)N1CCCCCC1,-2,-1
COc1ccc(/C=C/C2=NC(=C\c3ccc(Br)cc3)/C(=O)O2)cc1,30,36
CCn1cnnc1C1CCN(S(=O)(=O)c2ccc3[nH]c(=O)[nH]c(=O)c3c2)CC1,16,3
CCOc1ccc(CC(=O)NCCOc2ccc(-c3ccccc3)nn2)cc1,-4,-5
CCNC(=O)Cc1ccc(-c2ccc3c(c2)OCCO3)cc1,24,33
CN(NC(=O)CCC(=O)N1CCc2c([nH]c3ccccc23)C1)c1ccccc1,1,5
COC(=O)C1CCN(CC(O)COCc2ccc(NCCn3nc(C)cc3C)cc2)CC1 (centres undefined),1,3
Cc1nn(CCN(C)c2ccccc2)c(N)c1C#N,3,6
O=C(c1cc(F)ccc1F)c1ccccc1Cl,7,2
CC(C)(C)C(=O)CSc1nc2ccsc2c(=O)n1-c1ccccc1,1,4
Cc1ccc(C(=O)N(CC(=O)N(Cc2ccc(F)cc2)Cc2ccco2)CC(C)C)cc1[N+](=O)[O-],0,-3
COc1ccc(NC(=O)c2cnn3c(C(F)(F)F)cc(-c4ccco4)nc23)cc1OC,8,6
CN(CC1CCCCC1)C(=O)Cn1ccc(=O)[nH]c1=O,12,15
Cc1nc(SCC(=O)NC(C)COc2c(C)cccc2C)n[nH]1 (centres undefined),1,3
O=C(CC(c1ccccc1C(F)(F)F)c1c[nH]c2ccccc12)NCc1ccco1 (centres undefined),9,0
CS(=O)(=O)NC1CC(=O)N(CCc2ccc(F)cc2)C1 (centres undefined),6,13
Cc1nn(-c2ccc(F)cc2)c(C)c1Cn1ccnc1-c1cccnc1,-6,-2
Cc1cccc(NC(=O)CCCN2C(=O)c3cccc4cccc(c34)C2=O)c1,3,5
Cc1ccc(F)c2c1N(C(=O)COc1cccc(C(N)=O)c1)CCC2,4,10
Cc1ccc(-c2cc(C(=O)NCCc3ccc(Cl)cc3Cl)n(-c3cccc(Cl)c3)n2)cc1C,2,-2
CCc1nc(N(CCOC)CCC(=O)N2CCCC2)c2ccc(Cl)cc2n1,16,10
CCOC(=O)c1ccc(NC(=O)N(CCN2CCOCC2)CC(=O)N(Cc2ccc3c(c2)OCO3)Cc2ccc(C)o2)cc1,20,18

# This is a subset (hit frequency here may not be typical).
